ugtP null kill: growth inhibition of ugtP-null S. aureus, primary screen, RN4220 ugtP deletion, OD600; 16 h; some inactives read as strong as hits; growth inhibition, % (test concentration not listed); 0.54% of 330,000 active; AID 1259309, 2017;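 active = z-score under -3 and OD600 up to 0.15 on both plates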;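 also: plate controls were untreated wells for no effect and antibiotic for full effect; wells of about 80 µL received 100 nL stock; the first replicate is given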
Bead autofluor: compound fluorescence in toxin protease inhibitor counterscreen. compound autofluorescence counterscreen, microsphere flow cytometry; active compounds read high. fluorescence intensity (concentration not given with the values). 3.1% of 360,000 active. AID 624483;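 active = at least 3 SD above the mean of all compounds, about 16000 in these data; inconclusive = too few beads counted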;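 also: 100 nL of 1 mM stock went into each well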
Mtb hypoxia inh: PubChem AID 1159583; M. tuberculosis hypoxia-regulated fluorescent reporter, fluorescence; fluorescence inhibition, % (no concentration beside the values); 0.1% of 300,000 active;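 active = 35 to 45% if threefold the growth effect, above 45% if 1.5-fold the growth effect; inactive = the rest, general growth blockers included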;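 also: wells of about 50 µL received 100 nL stock; 0% = vehicle wells and 100% = reference inhibitor wells; whole bacteria with a GFP reporter of the hypoxia response; strong numbers were not always called active; many hits fall short of the cut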
PrP UTR inh: inhibition of PrP 5' UTR reporter expression. cell-based PrP 5' UTR mRNA reporter, plate reader. inhibition, % (no concentration beside the values). 0.35% of 340,000 active;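 active = every replicate at 50% or more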;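 also: 0 = median of the neutral control wells; tested in H4 reporter cells; numbers are from one replicate; inactives centre near -14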
BJeLR lethal: MLPCN primary cell-based screen for lethality selective to Ras in HRASV12 cells; BJeLR (HRASV12) viability, CellTiter-Glo ATP luminescence, 48 h; reference of the scale not given here; inhibition, % (test concentration not listed); 0.17% of 300,000 active;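 active = replicate mean above 50%; inconclusive = above 50% but judged a plate artefact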;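 also: 50 nL library stock added to about 25 µL; numbers are from one replicate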
RN4220 kill: growth inhibition of S. aureus RN4220, primary screen, OD600. 16 h. inhibition, % (concentration not given with the values). 0.33% of 330,000 active;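 active = z-score of -3 or lower and OD600 up to 0.18 on both plates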;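 also: plate controls were untreated cells for no effect and reference antibiotic for full effect; stock transfer was 100 nL into about 80 µL; one replicate is shown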
Mtb hypoxia inh growth: recorded beside Mtb hypoxia inh, whose call it bears; growth inhibition, %; measured here: M. tuberculosis growth (absorbance);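 0% = vehicle and 100% = reference antibiotic; read after six days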
Starred values were filed as active, the others as inactive; u = inconclusive; x = not tested or not shown; & = joins results of further samples.

SMILES | ugtP null kill | Bead autofluor | Mtb hypoxia inh | Mtb hypoxia inh growth | PrP UTR inh | BJeLR lethal | RN4220 kill
O=C1C=C(O)CC(c2ccc(Cl)cc2)C1 (stereo unspecified) | -5 | 4125 | x | x | -9 | -7 | 2.6
CCc1nc(N)c(C#N)c(-c2cccnc2)c1C | 3 | 17121* | 6 | 7 | -25 | x | 1.6
COc1nc(-c2ccc(Cl)cc2Cl)nc2ccccc12 | 34 | 2991 | 0 | 10 | -27 | 1 | 4.1
O=c1oc2ccccc2c(Nc2cc3ccccc3cc2O)c1[N+](=O)[O-] | 3 | 3656 | 20 | 3 | -52 | 1 | -4.9
COc1ccc(C=NNc2ncnc3scc(-c4ccccc4)c23)cc1OC | -7 | x | 1 | -4 | x | x | 3.5
O=C(C1=CC(c2coc3ccccc3c2=O)CC(OCc2ccc(CO)cc2)O1)N1CCOCC1 (stereo unspecified) | 12&-2 | x | 0&12 | -6&-2 | x | x | 9.3&1.9
Clc1ccc(CONC=Nc2ncnc3sccc23)c(Cl)c1 | 4 | x | -1 | 1 | x | x | 15
Cc1ccc(C(C)C)c(OCC(=O)NN=C2CCCCCCC2)c1 | -8 | 2516 | 2 | 8 | -5 | 5 | 4.7
CC(=O)N/C(=C/c1ccc2c(c1)OCO2)C(=O)NCCCO | x | 2805 | x | x | 3 | 0 | x
COc1ccc(NC(=O)[C@@H]2CC=C[C@@H]3CCN(Cc4ccc(Cl)c(Cl)c4)C(=O)[C@@H]32)cc1 | x | 3705 | x | x | 5 | 0 | x
Cc1ccc(NC(=O)[C@H](C)NC(=O)C2CCN(C(=O)[C@@H](NC(=O)OC(C)(C)C)C(C)C)CC2)cc1 | -2 | 3033 | 9 | 1 | -12 | 9 | 0.4
CC(Sc1nnc(CN2CCCC2)n1Cc1ccccc1)C(=O)Nc1ccc(F)cc1 (stereo unspecified) | 2 | 3931 | 13 | 14 | -1 | -14 | 0.6
CCCCn1c(N)c(N(CC(C)C)C(=O)CCCc2nc3ccccc3c(=O)[nH]2)c(=O)[nH]c1=O | 0 | 5997 | 3 | 4 | -3 | 3 | 1.2
COc1ccc(C(CNC(=O)c2cccc(Br)c2)N2CCCC2)cc1 (stereo unspecified) | -3 | 28340* | 3 | 18 | -25 | 4 | 10
Cc1cc(C(=O)CSc2nnc(-c3ccc(Cl)cc3)n2CC2CCCO2)c(C)n1C (stereo unspecified) | -14 | 3196 | 8 | 10 | -19 | -3 | 4.3
O=S(=O)(c1cccs1)N1CCN(Cc2nc3ccccc3s2)CC1 | 20 | 3416 | 15 | 13 | -25 | -6 | 0.8
COc1ccc(CN2CC(C(=O)NCCN3CCOCC3)CC2=O)cc1 (stereo unspecified) | 11 | 2372 | 9 | 7 | -4 | 15 | 2.7
O=C(O)CSC(C(=O)Nc1ccc(C(F)(F)F)cc1)c1ccccc1 (stereo unspecified) | 2 | 9862 | 7 | 8 | -8 | -6 | 3.5
CN(C)S(=O)(=O)c1ccc(NC(=O)CN2CCN(c3ccccn3)CC2)cc1 | -1 | 3242 | -9 | 8 | -9 | -13 | -0.9
N#Cc1cc(Oc2ccc(Cl)cc2)c(N2CCOCC2)cc1C#N | 6 | 8847 | -57 | 19 | -29 | -5 | 3.0

A second format for part of the listing above:
molecule	ugtP null kill	Bead autofluor	Mtb hypoxia inh	Mtb hypoxia inh growth	PrP UTR inh	BJeLR lethal	RN4220 kill
O=c1oc2ccccc2c(Nc2cc3ccccc3cc2O)c1[N+](=O)[O-]	3	3656	20	3	-52	1	-4.9
COc1ccc(C=NNc2ncnc3scc(-c4ccccc4)c23)cc1OC	-7	x	1	-4	x	x	3.5

The results go on:
SMILES | ugtP null kill | Bead autofluor | Mtb hypoxia inh | Mtb hypoxia inh growth | PrP UTR inh | BJeLR lethal | RN4220 kill
CC1(C)CC(=O)C(N=Nc2c(Cl)cc(Cl)cc2Cl)=C(O)C1 | 0 | 2060 | 0 | 7 | -15 | 2 | 5.3
CN(C(=O)c1cc(COc2c(F)cccc2F)on1)C1CCOC1 (stereo unspecified) | -1 | u | -1 | -9 | -4 | 4 | -2.1
COCc1cc(=O)c2ccccc2o1 | -9 | 3678 | 10 | 9 | -5 | x | 3.8
Cc1occc1C(=O)NC(C)C12CC3CC(CC(C3)C1)C2 (stereo unspecified) | -1 | 5206 | 9 | 9 | -2 | -5 | 1.7
CCCCn1c(N)c(N(CCOC)C(=O)COc2ccc(OCC)cc2)c(=O)[nH]c1=O | 11 | u | 7 | 5 | -6 | -6 | 3.4
CCOc1cc(C=NNC(=O)c2ccc(NC(=O)CC)cc2)ccc1OC(=O)c1ccccc1 | -8 | x | 18 | 0 | x | x | 5.7
CC(C)C[C@@H](CSc1ccc(Br)cc1)N1CCN(CCc2ccccc2)CCC1=O | x | 4070 | x | x | -11 | 2 | x
CCOc1ccc(N(CC(=O)NCCSCc2ccccc2Cl)S(C)(=O)=O)cc1 | -7 | 4480 | 18 | 41 | -36 | 0 | 6.9
COc1ccc(C(c2c(O)c3ccccc3oc2=O)c2c(C)n(C)n(-c3ccccc3)c2=O)cc1 (stereo unspecified) | 7 | 2234 | -4 | 3 | -19 | 3 | -2.4
COc1ccc(C(=O)N2CCN(Cc3ccc4c(c3)OCO4)CC2)cc1OC | 0 | 2947 | 4 | -3 | -26 | -11 | -0.5
O=C(NC1CCCCC1)c1cc(F)cc2c1OCOC2 | -5 | x | -4 | 12 | -4 | 0 | -2.2
CCOc1ccc(/C(O)=C2/C(=O)C(=O)N(c3ccccn3)C2c2ccc(F)cc2)c(C)c1 (stereo unspecified) | 12 | 3684 | 11 | 1 | -11 | 2 | 4.5
COc1ccc(N2CCN(C(=O)CSc3nnc4c(C)cc5ccccc5n34)CC2)cc1 | -5 | 2253 | x | x | -5 | 13 | 3.3
O=C(C1CCCN(Cc2ccc([N+](=O)[O-])cc2)C1)N1CCCCC1 (stereo unspecified) | 4 | 3536 | 1 | 5 | -12 | -2 | 3.7
CN1CCN(c2nc(C#N)cc(-c3ccccc3)n2)CC1 | -5 | 2726 | x | x | -15 | 4 | 2.4
Cc1cccc(NC(=O)Nc2ccc(OCc3ccccc3)cc2)n1 | 16 | 4270 | 16 | 5 | -13 | -4 | 12
CC(C)(C)OC(=O)N1O[C@H]2CC1[C@@H]1[C@@H]2N=NN1CCc1ccncc1 | 8 | 4063 | 1 | 6 | -40 | x | 1.9
CC(=NNc1cc(N2CCCCC2)nc(C)n1)c1ccc(Br)cc1 | 46 | x | -10 | 6 | x | x | -5.2
Cc1ccc(N2CC(C(=O)NCCC(C)C)CC2=O)cc1 (stereo unspecified) | 2 | 2439 | x | x | -13 | 8 | -2.1
CC(=O)Nc1nc2ccc(S(=O)(=O)N3CCCC3)cc2s1 | 9 | 5473 | 13 | 9 | -3 | -1 | 4.3
C#CC1(O)CCC2C3CCC4=C(CCC(=O)C4)C3CCC21C (stereo unspecified) | 5 | 3494 | -2 | 8 | -1 | x | 6.3
Cc1ccsc1CN(C)CC(=O)NCC(=O)Nc1ccc(F)cc1 | 2 | 8958 | 8 | 3 | -14 | x | 6.1
COc1ccc(C(C)=O)cc1CN1C(=O)NC2(CCCCC2C)C1=O (stereo unspecified) | 8 | 2193 | x | x | -15 | 3 | -1.4
O=C(NCCO)c1ccc2c3n(nc2c1)-c1ccc(Cl)cc1CO3 | 1 | 4340 | 9 | 13 | -50 | 7 | 4.0
CC(=N/N=C1/NC(=O)CC(C(=O)Nc2ccccc2)S1)c1cccs1 (stereo unspecified) | 7 | x | 4 | 5 | x | x | 14
CCc1ccc(C=NNC(=O)Cc2ccc(OC)c(OC)c2)s1 | 3 | x | 12 | 9 | x | x | 0.7
Cc1cc(=O)n2c3ccccc3n(CC(O)CN3CCN(CCO)CC3)c2c1C#N (stereo unspecified) | 0 | 4502 | 5 | 1 | -11 | 2 | -1.0
O=C(c1cccnc1)N1CCN(c2ccc3ccccc3n2)CC1 | 15 | 4537 | -5 | -8 | -23 | 5 | 2.2
Cc1ccc(NC(=O)C(C)OC(=O)c2ccc(NS(=O)(=O)c3ccc(F)c(F)c3)cc2)cc1 (stereo unspecified) | 1 | 2919 | 0 | 4 | -16 | 7 | 1.0
O=C(CN1CCN(S(=O)(=O)c2ccc(F)cc2)CC1)Nc1cc(C(F)(F)F)ccc1Cl | -2 | 5947 | x | x | -2 | -1 | 0.3
CC(C)c1ccc(/C=N/NC(=O)c2nnn(-c3nonc3N)c2CN2CCOCC2)cc1 | x | 5944 | x | x | -14 | -4 | x
FC(F)(Cl)c1nnc2ccc(Sc3ccccn3)nn12 | 5 | 3932 | 7 | 9 | -8 | -2 | 2.8
CC1CCN(c2nnc(-c3ccccc3)c3ccccc23)CC1 | -3 | 5083 | 21 | 10 | -9 | 7 | 2.2
CC1CN(C2CCCCC2)C(=S)N(c2ccccc2)C1=O (stereo unspecified) | 9 | 4046 | 9 | 4 | 0 | x | 5.1
CCCc1nc(SCc2ccccc2Cl)n[nH]1 | 6 | 4540 | x | x | -16 | -1 | 0.5
COCCNC(=O)c1c(NC(=O)c2nc(SC)ncc2Cl)sc2c1CCCC2 | -5 | 11165 | 5 | 2 | -21 | 5 | 4.3
Cc1ccc(Cl)cc1NC(=O)c1ccccc1OCC(=O)N1CCOCC1 | 12 | 4219 | 7 | 0 | -1 | -4 | 3.4
COc1ccccc1N1CCN(CC(=O)Nc2ccc(CN3CCCCC3)cc2)CC1 | 14 | 9348 | 2 | 5 | -25 | 1 | 8.6
Cc1ccc(OCc2nnc(SC(C)C(=O)O)n2-c2ccccc2)cc1 (stereo unspecified) | x | 3623 | x | x | -22 | -9 | x
Cc1ccc(N2CC(NS(=O)(=O)c3cc(F)ccc3F)CC2=O)cc1C (stereo unspecified) | 5 | u | 2 | -11 | 1 | 2 | 4.8
CCCCn1c(N)c(N(CCOC)C(=O)c2ccc(C)c(S(=O)(=O)N3CCOCC3)c2)c(=O)[nH]c1=O | x | u | x | x | -1 | 4 | x
COc1ccc(-c2nnc(NC(=O)c3ccc4c(c3)OCCO4)o2)cc1 | 0 | 5405 | 3 | -1 | -22 | 23 | 5.5
O=C(Cc1ccc(Cl)cc1)c1ccccc1 | 20 | 3012 | x | x | -52 | x | 5.1
CCOc1cccc(OCCOCCn2cnc3ccccc3c2=O)c1 | 6 | 3407 | 19 | -29 | -1 | 9 | 5.7
CCCCCCCCCCOC(=O)Cn1c(COc2ccccc2OC)[n+](C)c2ccccc21 | x | 3940 | x | x | -17 | -17 | x
CC1CN(C(C)CO)C(=O)c2cc(NC(=O)Nc3ccc4c(c3)OCO4)ccc2OC1CN(C)S(=O)(=O)c1cn(C)cn1 (stereo unspecified) | 0&3 | x | 8&11 | 5&9 | x | x | 5.4&5.6
CSCCC(NC(N)=O)C(=O)Nc1cccc(S(=O)(=O)N2CCOCC2)c1 (stereo unspecified) | 2 | 4519 | 7 | 4 | -27 | 6 | -0.7
CCC1(CC)C(=O)C2=C3C(CC(C(=O)OC)CC(C(=O)OC)C31)C1C(=O)N(c3ccccc3)C(=O)C1C2C (stereo unspecified) | 0 | x | 8 | 10 | x | x | 2.7
Cn1c(=O)[nH]c(=O)c2[nH]c(CN3CCN(Cc4ccccc4)CC3)nc21 | 2 | 6043 | 2 | 14 | -37 | 8 | -1.0
C=CCn1c(O)c(C(C)=NCCC(c2ccccc2)c2ccccc2)c(=O)[nH]c1=O | 18 | 2147 | 2 | 7 | -10 | 14 | -2.4
CC(=O)NC(=S)Nc1ccccc1C(=O)Nc1ccccc1 | 12 | 2507 | -1 | 6 | -17 | -8 | 5.3
CC1(c2cccc(Br)c2)NC(=O)N(CC(=O)Nc2ccc(S(N)(=O)=O)cc2)C1=O (stereo unspecified) | 6 | 5759 | -2 | 3 | -20 | 16 | 1.6

Retrieved by compound from the list above:
SMILES | ugtP null kill | Bead autofluor | Mtb hypoxia inh | Mtb hypoxia inh growth | PrP UTR inh | BJeLR lethal | RN4220 kill
CC1CN(C(C)CO)C(=O)c2cc(NC(=O)Nc3ccc4c(c3)OCO4)ccc2OC1CN(C)S(=O)(=O)c1cn(C)cn1 (stereo unspecified) | 0&3 | x | 8&11 | 5&9 | x | x | 5.4&5.6
CCCCCCCCCCOC(=O)Cn1c(COc2ccccc2OC)[n+](C)c2ccccc21 | x | 3940 | x | x | -17 | -17 | x
CSCCC(NC(N)=O)C(=O)Nc1cccc(S(=O)(=O)N2CCOCC2)c1 (stereo unspecified) | 2 | 4519 | 7 | 4 | -27 | 6 | -0.7
CC1(c2cccc(Br)c2)NC(=O)N(CC(=O)Nc2ccc(S(N)(=O)=O)cc2)C1=O (stereo unspecified) | 6 | 5759 | -2 | 3 | -20 | 16 | 1.6
COc1ccc(-c2nnc(NC(=O)c3ccc4c(c3)OCCO4)o2)cc1 | 0 | 5405 | 3 | -1 | -22 | 23 | 5.5

Screening data as filed in PubChem.
